# High-throughput results deposited in PubChem BioAssay by National Center for Advancing Translational Sciences (NCATS).
# gsp antag: qHTS for Antagonists of gsp, the Etiologic Mutation Responsible for Fibrous Dysplasia/McCune-Albright Syndrome: qHTS; gsp-mutant cells, cAMP HTRF, 30 min; control for the full effect not named in the record; Potency, µM (top dose mostly 76.9 µM), inactives show at the highest dose activity change, negative = inhibition, usual class: inhibitors; actives 0.4% (n = 340,000); active = falling curve of any shape with a large fitted effect; inconclusive = falling curve, mostly with a smaller effect; inactive = flat or rising curve; cell line not stated here;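 further: intracellular cAMP measured with PDE inhibitor Ro 20-1724 present during compound exposure; potency means the concentration at half of the fitted maximal effect; on the % scale 0 is the no-effect control and ±100 the full control effect; nearly all actives have a fitted effect of over 65% in size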
#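 HTRF cAMP measurement after 30 min RT detection following 30 min, 37C compound treatment alongside […] (added as 300 uM solution) in G418-selected cells seeded at 2000/well and grown 16–24 h.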
# ClpP mod: qHTS Assay for Activators of ClpP; Potency, µM (series often up to 57.5 µM), without a hit: at the highest dose activity change, negative = active; actives 1.9% (n = 340,000); purified B. subtilis ClpP, FRET peptide cleavage, 20 min; ATP-dependent Clp protease proteolytic subunit (Bacillus subtilis (strain 168)), P80244; active = well fitted falling curve with a large enough effect; inconclusive = small, poorly fitted or top-dose-only effect; inactive = no such curve, though single readings can be large or run the other way; further: potency means the concentration at half of the fitted maximal effect; the source files actives as falling curves though it sought activators and does not explain the sign; nearly all actives have a fitted effect of over 65% in size; many hits overshoot -100%
# Target sequence (P80244 whole entry, looked up): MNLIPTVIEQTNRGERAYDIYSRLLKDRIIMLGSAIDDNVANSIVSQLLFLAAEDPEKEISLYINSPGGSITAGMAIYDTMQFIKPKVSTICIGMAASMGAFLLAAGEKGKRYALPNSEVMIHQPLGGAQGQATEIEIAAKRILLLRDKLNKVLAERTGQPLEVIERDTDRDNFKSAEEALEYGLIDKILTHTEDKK
#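 FRET quenching reversal measured ClpP activation: 10 microg/mL B. subtilis ClpP at pH 8 with the FRET-FV decapeptide, read at 430 nm after 320 nm excitation. The 20-min minus 0-min signal was scaled between DMSO/no-enzyme wells and ADEP (5.8 microM final).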
# Sfp inh: qHTS Assay for Inhibitors of Bacillus subtilis Sfp phosphopantetheinyl transferase (PPTase); 4'-phosphopantetheinyl transferase ffp (Bacillus subtilis), Q9F4F7; Biochemical Sfp PPTase activity, qHTS; Potency, µM, without a hit: max response, negative = inhibition, most hits filed as inhibitors; actives 3.5% (n = 310,000); active means well fitted inhibition curve with a large enough effect; inconclusive means small, poorly fitted or top-dose-only effect, or another doubt; inactive means no such curve, though single readings can be large or run the other way;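 further: the enzyme is Sfp with the accession as filed and its product quenches rhodamine fluorescence; potency means the concentration at half of the fitted maximal effect; 0% = enzyme reaction without inhibitor and -100% = no enzyme wells; top concentration of the series not given in the record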
#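 Step 1, compound plus 15 nM Sfp-PPTase, 15 min, room temperature. Step 2, add rhodamine-CoA (5 uM) and BHQ-2-YbbR (12.5 uM). Step 3, read 525/598 nm fluorescence at 0 and 30 min.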
# Menin MLL FP FL: qHTS Assay for Inhibitors Targeting the Menin-MLL Interaction in MLL Related Leukemias: Competition With Fluorescein Labeled MLL-derived Peptide | AID 1766, 2009 | Fluorescence polarization, fluorescein-MLL peptide displacement from menin | 290,000 tested, under 10 active | FP activity change, % at 61.4 µM; inconclusive = falling polarisation curve, or a change in total fluorescence; inactive = total fluorescence flat and polarisation flat or rising; no compound was filed as active; the % refers to the polarisation; negative = inhibition;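 further: % of control where 0% means no effect; inhibitors lower the polarisation; unlabelled MLL peptide was the positive control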
# gsp ag: qHTS for Agonist of gsp, the Etiologic Mutation Responsible for Fibrous Dysplasia/McCune-Albright Syndrome: qHTS. AID 624287, 2012. actives 0.13% (n = 340,000). gsp mutant cells, cAMP HTRF, 30 min; control for the full effect not named in the record. Potency, µM (doses to about 76.9 µM), without a hit: at the highest dose activation (cAMP increase), usual class: activators; active = well fitted activation curve with a large enough effect; inconclusive = small, poorly fitted or top-dose-only effect, or another doubt; inactive = no such curve, though single readings can be large or run the other way; cell line not stated here;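 further: phosphodiesterase inhibitor Ro 20-1724 added with compounds to block cAMP breakdown; potency means the concentration at half of the fitted maximal effect; nearly all actives have a fitted effect of over 60% in size; about a fifth of the inactives were tested at one dose only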
#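 Cells in DMEM/10% FBS with G418 were pretreated with compounds in DMSO plus […] (300 uM stock) for 30 min at 37C. cAMP was measured by HTRF (cAMP-d2 plus anti-cAMP antibody-K) after 30 min at room temperature.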
# TRPV1 PAM: HTS Assay for Compounds that Act as Potentiators of the Vanilloid Receptor 1; actives 0.02% (n = 320,000); TRPV1-expressing cells, Fluo-8 calcium influx, capsaicin EC20 potentiation; host cell line not named in the record; control for the full effect not named in the record; potentiation, % at 8.33 µM; AID 540277, 2011; Transient receptor potential cation channel subfamily V member 1 (Homo sapiens), Q8NER1; active means potentiation above 80%; inconclusive means 30% to 80%; inactive means below 30%; further: 0% is about no effect
# Target sequence (Q8NER1 whole entry, looked up): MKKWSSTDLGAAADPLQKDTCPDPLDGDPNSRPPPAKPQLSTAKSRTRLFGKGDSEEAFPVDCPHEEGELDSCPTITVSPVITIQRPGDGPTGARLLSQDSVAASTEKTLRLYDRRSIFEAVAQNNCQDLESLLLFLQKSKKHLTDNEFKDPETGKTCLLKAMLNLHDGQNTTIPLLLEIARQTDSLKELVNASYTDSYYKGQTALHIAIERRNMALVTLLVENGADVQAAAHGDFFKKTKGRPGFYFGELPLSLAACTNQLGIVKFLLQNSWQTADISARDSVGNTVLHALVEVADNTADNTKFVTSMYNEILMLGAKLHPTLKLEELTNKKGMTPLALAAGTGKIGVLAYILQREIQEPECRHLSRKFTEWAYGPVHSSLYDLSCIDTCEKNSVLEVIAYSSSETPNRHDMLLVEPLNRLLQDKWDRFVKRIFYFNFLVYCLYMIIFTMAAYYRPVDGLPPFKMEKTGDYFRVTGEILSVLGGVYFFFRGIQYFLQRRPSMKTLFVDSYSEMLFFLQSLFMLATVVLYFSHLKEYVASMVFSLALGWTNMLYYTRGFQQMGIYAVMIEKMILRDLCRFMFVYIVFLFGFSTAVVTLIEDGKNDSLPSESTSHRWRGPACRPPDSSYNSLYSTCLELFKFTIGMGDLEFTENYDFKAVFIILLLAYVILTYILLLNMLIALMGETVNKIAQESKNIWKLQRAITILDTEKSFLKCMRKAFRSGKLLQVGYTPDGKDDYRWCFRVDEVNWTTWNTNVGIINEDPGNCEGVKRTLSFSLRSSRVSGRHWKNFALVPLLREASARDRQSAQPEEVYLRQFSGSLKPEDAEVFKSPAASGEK
#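 Fluo-8 calcium influx in TRPV1-expressing cells, kinetic read (ex 480/em 520 nm). Compound added and read 3 min for agonist activity, followed by capsaicin at EC20 final and 2 min further read for enhancement.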
# CtBP-E1A inh: qHTS Assay for Inhibitors of the CtBP/E1A Interaction; AID 651724, 2012; CtBP / adenovirus E1A interaction (AlphaScreen); AlphaScreen GST-E1A/His-CtBP binding, 1536-well; active compounds read low; control for the full effect not named in the record; activity change, % (concentration not given with the values); actives 0.49% (n = 340,000); in the data active means activity change below about -65%; inconclusive means about -30% to -65%; inactive means above about -30%; further: on the % scale 0 is the no-effect control and ±100 the full control effect
#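 GST-E1A and His-tagged CtBP (125 nM each as 5X stock) were preincubated with pin-transferred compound for 2 h at 37 °C in the dark, then glutathione donor and nickel acceptor beads were added for 1 h before AlphaScreen reading.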
# * = called active by the depositor; ? = inconclusive; nt = no result given; & = joins results of further samples; [ ] = remark or other dose.
SMILES,gsp antag,ClpP mod,Sfp inh,Menin MLL FP FL,gsp ag,TRPV1 PAM,CtBP-E1A inh
Cc1ccc(-c2nn(C)c(=O)c3ccccc23)cc1S(=O)(=O)NCCN1CCOCC1,4%,-1.5%,16%,2.4,-1%,0,4
C/C(=N\NC(=O)c1nnn(-c2nonc2N)c1CN1CCCCC1)c1ccccc1O,-9%,nt,3%,-5.2,14%[15.4 µM],-2,-14
Cc1ccc(C(C)C)c(OCC(=O)Nn2c(=O)[nH]c3ccccc3c2=O)c1,4%,-21%,3%,0.5,-3%,7,3
CC(=O)c1ccc(NC(=O)C(C)Sc2nnc3ccccn23)cc1 (centres undefined),-1%,-1.6%,nt,nt,8%,5,8
CC(C)=N/N=C1/NC(=O)C(c2ccc(Cl)cc2)S1 (centres undefined),4%,-2.8%,nt,nt,-23%,nt,-8
Cc1onc(-c2ccccc2Cl)c1C(=O)N(C)Cc1ccccc1,-7%,nt,10%,-1.8,-21%,-1,2
COc1ccc(CNc2ccc3c(c2)CCC3)cc1OC,nt,nt,-6%,3.6,nt,12,nt
CC1=C(C(=O)N2CCOCC2)C(c2ccc(-c3ccccc3)cc2)NC(=S)N1 (centres undefined),-4%,28µM*,16%,?,3%[15.4 µM],0,7
CCOc1cc(C(=O)Nc2c(C)ccc3nsnc23)cc(OCC)c1OCC,0%,-12%,-8%,1.1,-8%,-9,0
CC(=O)c1c(C)[nH]c(C(=O)OCC(=O)Nc2cccc(S(=O)(=O)N(C)C)c2)c1C,1%,nt,7%,-0.3,1%,26,-19
Fc1ccccc1N1CCN(Cc2nc(-c3ccc(Cl)cc3Cl)no2)CC1,-12%,1.9%,-5%,2.1,-2%,4,13
CC1CN(C(=S)Nc2cccc(F)c2)CC(C)O1 (centres undefined),14%,-0.4%,10%,0.5,-4%[15.4 µM],-3,5
CCCCn1c(SCC(=O)Nc2nnc(C)s2)nnc1-c1ccoc1C,-10%,-3.2%,13%,2.8,-3%,13,0
O=C1C2CC=CCC2C(=O)N1c1ccc(N2CCN(c3ccccn3)CC2)c([N+](=O)[O-])c1 (centres undefined),22µM*,nt,-9%,-8.1,-1%,-2,-3
Cc1ccccc1NC(=O)COC(=O)CCc1ccccc1,3%,1.4%,9%,-0.7,?,-5,15
CC/C(Cc1ccccc1)=N\NC(=O)c1cc([N+](=O)[O-])cc([N+](=O)[O-])c1,8%,0.3%,-7%,-0.3,38%,1,nt
Cc1nc2c(c(=O)n1Cc1ccccc1Cl)c1nc3ccccc3nc1n2Cc1ccco1,nt,nt,2.8µM*,31[activator],nt,3,nt
CC(C)(C)c1ccccc1NC(=O)c1cc(-c2ccncc2)nc2ccccc12,-8%,nt,nt,nt,-19%,nt,-2
CC(=O)Nc1ccc(NC(=O)CSc2nc(=O)n(CCCN3CCOCC3)c3c2CCC3)cc1,nt,2.0%,nt,nt,?,nt,1
COc1cc(/C=N/NC(=O)Cn2ccc(C(F)(F)F)n2)cc(OC)c1OC,0%,-16%,18%,-3.6,?,6,3
O=C(COC(=O)/C=C/c1ccc(Cl)c(Cl)c1)NC1CCS(=O)(=O)C1 (centres undefined),7%,1.1%,nt,nt,3%,-6,?
CCC1CCCCN1Cc1c(O)ccc2c(=O)c(-c3ccccc3)coc12 (centres undefined),1%,1.0%,14%,-1.6,1%[15.4 µM],-18,10
O=C(Nc1ccccc1NC(=O)c1ccc(F)cc1)c1ccc(F)cc1,9%,-1.4%,10%,-4.1,-5%,8,nt
CCOc1cccc2cc(-c3nnc(NCc4ccc5c(c4)OCO5)s3)c(=O)oc12,10%,0.8%,?,3.9,-14%,7,1
Cc1cccc(N2CCN(c3nc4nonc4nc3N3CCSCC3)CC2)n1,1%,nt,-5%,-14,-9%[15.4 µM],-12,0

# Following part
SMILES,gsp antag,ClpP mod,Sfp inh,Menin MLL FP FL,gsp ag,TRPV1 PAM,CtBP-E1A inh
CCOc1ccc(C(C)NC(=O)Nc2ccccc2C(=O)OC)cc1 (centres undefined),-12%,-27%,9%,-1.6,14%,-5,3
C=CCn1c(C)cc(C(=O)COC(=O)c2n[nH]c(=O)c3ccccc23)c1C,-7%,-1.4%,nt,nt,-6%[15.4 µM],nt,-1
Nc1cc(=O)[nH]c(=O)n1Cc1ccccc1,-2%,-1.7%,11%&3%,2.7&-0.2,-11%,11,2
CCN(Cc1cc2ccccc2[nH]c1=O)C(=O)C1CCCCC1,-3%,?,-1%,3.1,20%,-6,-6
Cc1cccc(N2CCN(c3nnc(C(F)(F)F)s3)CC2)c1,1%,0.1%,4%,2.3,8%,-4,6
CCn1ncc(C2=NOC(C(=O)Nc3c(C)nn(Cc4ccc(F)cc4)c3C)C2)c1C (centres undefined),-5%,0.1%,6%,-4.1,-62%[inhibitor],-5,4
CCNS(=O)(=O)c1ccc(S(=O)(=O)N(Cc2ccccn2)C2CCCCC2)cc1,-14%,-0.1%,3%,-1.2,-11%,-16,1
OCCNc1cc(-n2nc(-c3ccccc3)cc2-c2ccccc2)ncn1,-13%,-3.8%,-2%,1.6,19%,10,0
Cc1ccc(-c2nnc(Nc3ccc(CC(N)=O)cc3)c3ccccc23)cc1S(N)(=O)=O,-5%,-2.8%,6%,5.1,15%,-14,-13
Oc1ccc(Cl)cc1CNCc1cccc2ccccc12,7%,-0.7%,nt,nt,19%,1,9
Cn1cccc1/C=N/NC(=O)CNc1cccc2ccccc12,-14%,nt,-2%,1.2,5%[15.4 µM],1,-9
Cc1onc(-c2ccccc2Cl)c1C(=O)NCCCc1ccccc1,-2%,-0.1%,4%,nt,6%,-15,10
CCCOc1ccc(CNC(=O)Cn2c(=O)oc3ccccc32)cc1,6%,2.6%&2.3%,24%,2.9,6%,8,4
CSc1cccc(NC(=S)N(Cc2ccc(C)cc2)Cc2ccccn2)c1,-7%,nt,12%,0.1,3%[15.4 µM],-4,0
C=C(C)CN=CC1(C)CCC(C)=CO1 (centres undefined),4%,-1.4%,nt,nt,6%[15.4 µM],nt,1
CCOc1ccc(S(=O)(=O)NCc2ccncc2)cc1NC(=O)c1ccccc1,-24%,0.8%,nt,nt,-55%[inhibitor],3,-8
Cc1cccc(NC(=S)N2CCC(NC(=O)C3CCCCC3)CC2)c1,-12%,0.6%,15%,-5.6,-2%[15.4 µM],-3,-1
CCCCNc1c([N+](=O)[O-])cc(C)cc1[N+](=O)[O-],-18%,0.6%,8%,-2.2,12%,nt,-25
O=C(NCCn1cccn1)C1CCC(=O)N(CCc2ccccc2)C1 (centres undefined),5%,1.7%,22%,nt,2%[15.4 µM],6,-3
O=C(COC(=O)c1cc(=O)[nH]c(=O)[nH]1)Nc1cccc(S(=O)(=O)N2CCOCC2)c1,9%,0.6%,-3%,7.3,2%[15.4 µM],8,7
O=C(CCS(=O)(=O)c1ccc2c(c1)NC(=O)CS2)NCCc1ccccc1,8%,-2.2%,13%,2.0,-5%,-5,nt
O=C(C[n+]1cc2ccccc2c2ccccc21)c1ccccc1,-4%,25µM*,9%,12,-106%[inhibitor],1,0
C/C(=N/N1CCN(Cc2cccc3ccccc23)CC1)c1cccnc1,0%,nt,21%,2.1,14%[15.4 µM],-6,-10
O=S(=O)(N=C1C=CC(=NS(=O)(=O)c2ccccc2)c2ccccc21)c1ccccc1,nt,-3.3%,nt,nt,?,nt,3
CC1=C(c2ccccc2)C(O)(c2ccccc2)C(C)C1=O (centres undefined),2%,nt,nt,nt,6%,nt,0

# (cont.)
SMILES,gsp antag,ClpP mod,Sfp inh,Menin MLL FP FL,gsp ag,TRPV1 PAM,CtBP-E1A inh
CC(C)CN1C(=O)C(=O)N(CC(=O)NC(C)CCc2ccccc2)C1=O (centres undefined),10%,nt,nt,nt,-43%[15.4 µM],8,-24
Oc1ccc(Cl)cc1C1=NCCNC(C(F)(F)C(F)F)=C1,3%,-0.7%,10%,0.4,16%,0,-6
O=C(CCCCCN1C(=O)CCC1=O)NCc1ccccc1,-9%,0.8%,16%,6.8,?,-22,8
COc1ccccc1N1CCN(C(=O)c2c(C)cc(=O)oc2C)CC1,9%,-1.3%,-10%,5.9,2%,2,1
N#CCCn1c(SCC(=O)c2c[nH]c3ccccc23)nc2ccccc21,3%,1.9%,-12%,0.7,10%,11,2
CCOC(=O)c1cnc2nc(NCc3ccc(OC)c(OC)c3)[nH]n2c1=O,6%,-2.6%,-11%,6.3,-6%,2,7
CCc1cc(=O)[nH]c(-n2[nH]c(-c3ccccc3)cc2=O)n1,-5%,nt,-10%,3.7,2%[15.4 µM],8,-10
O=C(/C=C/c1cccs1)Nc1ccncc1,3%,-1.5%,14%,3.4,23%[15.4 µM],-17,-3
CCCCNC(=O)Nc1cc(C(=O)OC)ccc1C,-7%,-4.7%,16%,-1.6,-6%,-4,10
C[C@H](O)[C@@H]1C(=O)N2CCc3c([nH]c4ccccc34)[C@@H]2C[C@@H]1N(C)C(=O)NC1CCCCC1,nt,-1.3%,nt,nt,?,nt,0
O=[N+]([O-])c1ccc(S(=O)(=O)NCC2CC3CCC2C3)cc1 (centres undefined),5%,3.1%,6%,-2.0,-13%,-1,nt
NS(=O)(=O)c1ccc(NC(=S)NC(=O)c2cccnc2)cc1,-7%,nt,-95%,0.0,12%[15.4 µM],0,nt
Cc1cc(/C=C2\C(=N)N3C(SCc4ccccc4)=NSC3=NC2=O)c(C)n1Cc1ccccc1,-9%,1.7%,-6%,3.0,?,5,4
N#CC(C#N)=Cc1cnc(N2CCN(c3ccccc3)CC2)s1,7%,nt,3%,?,11%[15.4 µM],-3,8
Cn1c(=O)c2nc(NCc3ccccc3)sc2n(C)c1=O,6%,nt,nt,nt,33%,nt,-18
CC(C)C1C2=C(CC(C)(C)CC2=O)ON1c1ccccc1 (centres undefined),-26%,-0.4%,-14%,3.7,-11%,-11,52
